Screening data (PubChem BioAssay)
MARV entry inh: qHTS for inhibitors of binding or entry into cells for Marburg Virus | Marburg virus pseudotyped entry inhibition, cell reporter; control for the full effect not named in the record; about a third of the inactives were read at about 46 µM | Potency, µM (series often up to 37.8 µM), for the others: at the top dose activity change, negative = inhibition, usual class: inhibitors | 1.8% of 300,000 active; active = well fitted inhibition curve with a large enough effect; inconclusive = small, poorly fitted or top-dose-only effect, or effect the other way; inactive = flat fitted curve, though single readings scatter; tested in HEK293 cells; about a fifth of its hits are not listed in these tables; note: % is set by controls: 0 for no effect and ±100 for the full control effect; luciferase read-out
NS1 inh: qHTS Assay for Inhibitors of Influenza NS1 Protein Function; S. cerevisiae slowed by influenza A NS1, growth recovery by OD600; Potency, µM (doses to about 46.1 µM), for inactives: top-dose activity, positive = more growth; 0.4% of 270,000 active; AID 2326, 2010; active means well fitted rising curve with a large enough effect; inconclusive means small, poorly fitted or top-dose-only effect; inactive means no such curve, though single readings can be large or run the other way; note: nearly all actives have a fitted effect of over 50% in size
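Growth recovery, yeast-based: influenza A NS1 expressed in S. cerevisiae causes slow growth, and suppressors are detected by OD600. The parent strain without NS1 is used as positive control.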
Cruzain inh noDet: qHTS Assay for Promiscuous and Specific Inhibitors of Cruzain (without detergent); AID 1476, 2009; Cruzipain (Trypanosoma cruzi), P25779; purified cruzain, Z-FR-AMC fluorescence, no detergent; 2.3% of 200,000 active; Potency, µM, for the others: max response, negative = inhibition, actives largely listed as inhibitors;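 note: plate controls were enzyme without inhibitor for no effect and buffer without enzyme for full effect; nearly all actives have a fitted effect of over 40% in size; top concentration of the series not given in the record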
Target sequence (P25779 123-467 limits assumed): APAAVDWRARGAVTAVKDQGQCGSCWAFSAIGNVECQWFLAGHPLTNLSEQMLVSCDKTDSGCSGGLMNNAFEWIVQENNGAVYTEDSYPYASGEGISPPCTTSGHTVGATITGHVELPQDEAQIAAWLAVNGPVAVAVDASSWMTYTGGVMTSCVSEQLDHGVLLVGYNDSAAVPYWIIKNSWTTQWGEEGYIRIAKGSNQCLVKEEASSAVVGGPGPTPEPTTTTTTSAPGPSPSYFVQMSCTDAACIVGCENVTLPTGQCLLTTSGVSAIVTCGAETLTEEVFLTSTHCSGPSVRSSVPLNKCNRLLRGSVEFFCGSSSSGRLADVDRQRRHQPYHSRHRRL
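Purified cruzain at 1.5 nM, pre-incubated 15 min with compound at room temperature in 100 mM sodium acetate pH 5.5, 5 mM DTT, 0.00005% Triton X-100. Reaction started with 2 uM Z-FR-AMC; AMC fluorescence increase over 60 s gives rate.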
Cruzain inh Det: qHTS Assay for Promiscuous and Specific Inhibitors of Cruzain (with detergent). Cruzipain (Trypanosoma cruzi), P25779. Potency, µM, without a hit: max response, negative = inhibition, usual class: inhibitors. AID 1478, 2009. 0.43% of 200,000 active. purified cruzain, Z-FR-AMC fluorescence, 0.01% Triton;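 note: plate controls were neutral wells for no effect and buffer without enzyme for full effect; nearly all actives have a fitted effect of over 40% in size; top concentration of the series not given in the record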
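Enzyme 1.5 nM, Z-FR-AMC 2 uM, NaOAc 100 mM pH 5.5, DTT 5 mM, Triton X-100 0.01%; 15 min RT compound preincubation; kinetic ex360/em450, 60 s delta.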
SARS PLP yeast: qHTS of Yeast-based Assay for SARS-CoV PLP. S. cerevisiae expressing SARS-CoV PLpro, growth rescue; control for the full effect not named in the record. Potency, µM (doses to about 32.9 µM), for the others: at the top dose activity, positive = growth rescue. 0.19% of 330,000 active. AID 485353, 2010; active means well fitted rising curve with a large enough effect; inconclusive means small, poorly fitted or top-dose-only effect; inactive means no such curve, though single readings can be large or run the other way; note: 0% is about no effect; nearly all actives have a fitted effect of over 55% in size; growth read by luminescence after 48 h
StopGo reporter: High Throughput Screening for Foot and Mouth Disease Virus Antivirals | human cells with a luciferase reporter of 2A StopGo recoding; control for the full effect not named in the record | Potency, µM (titrated, usually from 57.9 µM), for the others: at the highest dose signal change, negative = less light | 1.2% of 410,000 active | AID 1159524, 2015; active = well fitted falling curve with a large enough effect; inconclusive = small, poorly fitted or top-dose-only effect; inactive = no such curve, though single readings can be large or run the other way; tested in HEK293T cells; note: % is set by controls: 0 for no effect and ±100 for the full control effect; nearly all actives have a fitted effect of over 45% in size; luciferase light after 4 h
RE007 growth inh: qHTS Assay for Inhibitors of the HIV-1 protein Vpr. S. pombe RE007 Vpr strain, BacTiter-Glo ATP luminescence, 24 h; control for the full effect not named in the record. 0.21% of 360,000 active. Potency, µM (series often up to 92.2 µM), for the others: at the top dose activity change, negative = less growth; active = well fitted falling curve with a large enough effect; inconclusive = small, poorly fitted or top-dose-only effect; inactive = no such curve, though single readings can be large or run the other way;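 note: % is set by controls: 0 for no effect and ±100 for the full control effect; nearly all actives have a fitted effect of over 50% in size; the assay follows cell death caused by Vpr and the record does not say whether a fall means rescue or toxicity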
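Fission yeast RE007 carrying one integrated HIV-1 vpr copy, seeded at OD 0.01 in PMG+AL medium with 23 nL pinned compound. Grown 24 h at 30 degrees; viability read by BacTiter-Glo luminescence after 5 min.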
LASV entry inh: qHTS for Inhibitors of binding or entry into cells for Lassa Virus; Lassa virus pseudotype entry inhibition, cell reporter; control for the full effect not named in the record; Potency, µM (highest dose often 37.9 µM), for inactives: at the top dose activity change, negative = inhibition, actives largely listed as inhibitors; 1.2% of 300,000 active; AID 540256, 2011; active means well fitted inhibition curve with a large enough effect; inconclusive means small, poorly fitted or top-dose-only effect, or effect the other way; inactive means flat fitted curve, though single readings scatter; tested in HEK293 cells; note: % is set by controls: 0 for no effect and ±100 for the full control effect; nearly all actives have a fitted effect of over 50% in size; luciferase read-out
* marks the source's active call; other numbers are inactive results; ? = inconclusive; / = not tested or not shown; & = joins results of further samples; [ ] = remark or other dose. Unless noted, calls come from the whole dose curve; as a rule, active = well fitted curve in the direction sought with a large enough effect; inconclusive = small, poorly fitted or top-dose-only effect, or another doubt; inactive = no such curve, though single readings can be large; an effect the other way counts as inactive or inconclusive. Potency is the fitted concentration of half-maximal effect.

SMILES	MARV entry inh	NS1 inh	Cruzain inh noDet	Cruzain inh Det	SARS PLP yeast	StopGo reporter	RE007 growth inh	LASV entry inh
CCOC(=O)c1c(N)sc(-c2ccccc2)c1C	-18%	6%	-26%	-12%	15%	/	-21%	0%
NC(=O)c1ccc(N2CCC(C(N)=O)CC2)c([N+](=O)[O-])c1	/	-1%	/	/	0%	-17%	18%	/
CCOc1ccc2c(C)cc(=O)oc2c1OCC	12%	-6%	5%	0.9%	2%	-8%	-6%	-3%
O=C(Cn1cc(C(=O)c2ccccc2)c2ccccc21)Nc1ccc(Br)cc1	?	/	-8%	-4.5%	/	0%	/	-20%[46.1 µM]
COc1ccc(CNC(=O)c2ccc(Cn3c(=O)c4cccn4c4cccnc43)cc2)c(OC)c1	/	/	-6%	-1.4%	/	-21%	/	-10%[46.1 µM]
COc1cc(C(=O)Nc2cc(-c3nc4cc(C)ccc4o3)ccc2C)cc(OC)c1OC	-9%	10%	?	10%	-8%	9%	27%	-5%
Cc1cc(Br)c2[nH]c3c(c2c1)CCCC3=O	-8%[46.1 µM]	-46%	-4%	-11%	-8%	-1%	-24%	-1%
CN1C(C(=O)c2ccccc2)=C(NC(=O)c2ccc(F)cc2)c2ccccc2S1(=O)=O	1%[46.1 µM]	/	?	-10%	/	?	/	20%[46.1 µM]
Cc1[nH]c2ccccc2c1/C=C(\C#N)C(=O)NCC1CCCO1 (stereo unspecified)	6%	-1%	/	/	0%	38%[activator]	-8%	-25%
CCOc1ccc(OCCSc2nc(C)cc(=O)[nH]2)cc1	?	-13%	-3%	-0.9%	-1%	-5%	-24%	?
CC(OC(=O)Cc1ccsc1)C(=O)Nc1ccc(Cl)cn1 (stereo unspecified)	-7%	/	/	/	-1%	-17%	4%	12%
O=S(=O)(Nc1cccc(CCc2ccccn2)c1)c1cc(Cl)ccc1Cl	?	-45%	/	/	0%	?	-16%	-16%
CCOC(=O)C1(Cc2cccc(OC)c2)CCCN(C(=O)CCN2CCCO2)C1 (stereo unspecified)	?	?	/	/	6%	37%[activator]	8%	-7%[46.1 µM]
CSc1nc(Sc2ccccc2)c2ccccc2n1	?	-14%	7%	-1.7%	-5%	-11%	-24%	-1%
Cc1cc(C(=O)CS(=O)c2ccc(F)cc2)cc(C)c1OC(=O)N(C)C (stereo unspecified)	19%[46.1 µM]	/	/	/	1%	11%	3%	-3%[46.1 µM]
COc1ccc(CNCCC(c2ccc(F)cc2)c2ccc(OC)cc2)cc1 (stereo unspecified)	11µM*	-17%	4%	1.5%	27%	-10%	16%	13µM*
CCCCn1c(SCC(=O)N2CC(C)CC(C)C2)nc2cc(S(N)(=O)=O)ccc21 (stereo unspecified)	-2%&-6%	-21%	3%	-3.9%	-6%	20%	2%	4%
CCOc1ccccc1N(CC(=O)Nc1ccc2c(c1)OCCO2)S(C)(=O)=O	-1%	2%	7%	-1.2%	-3%	8%	9%	4%
C/C(N)=C(/C#N)C(=O)CSc1nc2ccccc2[nH]1	18%	5%	3%	-1.3%	-1%	31%[activator]	9%	12%
COc1ccc(OC)c(CCNC(=O)C(C)n2nc(C)c3c(C)n(-c4ccccc4)nc3c2=O)c1 (stereo unspecified)	?	3%	/	/	1%	-8%	-9%	-22%[46.1 µM]
COc1cc(C(=O)N2CCN(C(=O)c3ccccc3)CC2)cc(OC)c1OC	3%	2%	4%	1.8%	6%	-4%	-6%	2%
CCC(NC(=O)CNC(=O)CNC(=O)c1ccc(Cl)cc1Cl)c1ccc(C)cc1 (stereo unspecified)	-5%[46.1 µM]	4%	/	/	1%	16%	-1%	-28%[46.1 µM]
COc1cccc(NC(=O)CN(C)C(=O)c2cc(-c3ccccc3)nc3ccc(C)cc23)c1	?	/	/	/	/	-10%	0%	?
Cc1ccnc(NC(=O)c2cccc(S(=O)(=O)N3CCN(c4ccccc4)CC3)c2)c1	?	/	/	/	-6%	?	-24%	5µM*
COc1cccc(NC(=O)COC(=O)Cc2ccc(Br)cc2)c1	?	/	/	/	-4%	20%	-14%	-7%

Two compounds from above with just LASV entry inh and Cruzain inh noDet:
SMILES	LASV entry inh	Cruzain inh noDet
COc1cccc(NC(=O)COC(=O)Cc2ccc(Br)cc2)c1	-7%	/
CCOc1ccc2c(C)cc(=O)oc2c1OCC	-3%	5%

Next entries follow:
SMILES	MARV entry inh	NS1 inh	Cruzain inh noDet	Cruzain inh Det	SARS PLP yeast	StopGo reporter	RE007 growth inh	LASV entry inh
Cc1ccc(-c2nc(SC(C)C(=O)N3CCOCC3)n[nH]2)cc1 (stereo unspecified)	/	-9%	/	/	-1%	6%	9%	/
COc1ccc(NC(=O)N2CCCC2C(=O)NCc2ccccc2Cl)cc1 (stereo unspecified)	1%	11%	/	/	0%	10%	-15%	-10%
CC(CCc1ccccc1)NC(=O)Cc1cccs1 (stereo unspecified)	?	-1%	/	/	1%	17%	3%	9%
COc1ccc2c(c1)C(=O)CC(c1ccc3c(c1)OCCO3)O2 (stereo unspecified)	?	-13%	/	/	-1%	8%	42%	-17%
COc1ccc2nc(C)c(C(=O)OCCN(C)C)cc2c1	1%	-8%	-5%	-1.3%	-3%	/	/	/
CCOC(=O)N1CCN(C(=O)C2CCN(S(=O)(=O)CC)CC2)CC1	6%	3%	5%	2.1%	-1%	/	-2%	17%
C/C(=N\NC(=O)c1cc(C)nc2ccccc12)c1cccs1	/	1%	/	/	1%	0%	-14%	/
c1cncc(-c2nnc3sc(C4CCCCC4)nn23)c1	-1%	-61%	-7%	-2.1%	-15%	-14%	25%	-20%
CC(C)Nc1ccc(-c2nc(-c3ccncc3)no2)cc1[N+](=O)[O-]	1%[46.1 µM]	/	-25%	-4.8%	/	33%[activator]	/	16%[46.1 µM]
CCN(c1ccccc1)S(=O)(=O)c1ccc(OC)c(NC(=O)CN2C(=O)NC(C)(C)C2=O)c1	-10%	/	/	/	3%	-10%	17%	5%
CCOC(=O)c1cc2sccc2n1CC(=O)Nc1ccc(OC)cc1	?	1%	5%	3.8%	-3%	-13%	3%	-12%
Cc1cccc(-c2noc(-c3ccc(NCc4cccnc4)c([N+](=O)[O-])c3)n2)c1	11%[46.1 µM]	/	-17%	-5.3%	/	-12%	/	-16%[46.1 µM]
O=C(CCc1ccc(S(=O)(=O)NC2CCCCC2)cc1)N(Cc1ccccc1)Cc1ccccc1	13µM*	11%	-10%	-6.6%	-20%	32%[activator]	6%	?
CN(C)CCOc1ccc(C(C)(C)c2ccccc2)cc1	?	-1%	/	/	0%	-2%	0%	-13%
CN1C(=O)C(CC(=O)Nc2ccc(F)cc2)N(Cc2ccco2)C1=S (stereo unspecified)	?	0%	/	/	-1%	-6%	-13%	-23%
CC(C)(C)n1nnnc1C(c1ccc(C(F)(F)F)cc1)N(Cc1ccccc1)Cc1ccco1 (stereo unspecified)	?	8%	0%	-0.1%	-2%	?	-4%	?
C=CCc1cc(/C=C2/NC(=O)N(CC(=O)OC)C2=O)cc(OC)c1O	6%	/	/	/	2%	-4%	1%	-19%[46.1 µM]
CC1=C(C(=O)Nc2ccccc2C)C(c2cccnc2)n2nc(SCc3ccccc3)nc2N1 (stereo unspecified)	/	/	-6%	0.6%	/	-16%	/	-2%[46.1 µM]
C=CCn1c(O)c(C(C)=NCCCO)c(=O)[nH]c1=O	13%	7%	-1%	7.7%	0%	-8%	-5%	10%
Cc1ccc(Nc2nc(N)nc(CN3CCN(C(=O)c4ccco4)CC3)n2)cc1Cl	?	-14%	21%	-11%	1%	-4%	0%	-17%
N/C(=N\OC(=O)c1ccccc1Cl)c1ccc(Cl)cc1	?	-19%	-16%	0.3%	-29%	-6%	?	?
COc1ccc(CCNC(=O)CCCn2c(=O)c3ccccc3n(CC(=O)Nc3ccccc3C)c2=O)cc1OC	?	/	-5%	0.1%	/	-17%	/	14%[46.1 µM]
CCN1C(=O)c2ccccc2S(=O)c2ccc(C(=O)NCc3ccc(F)cc3)cc21 (stereo unspecified)	-14%[46.1 µM]	/	-6%	-0.7%	/	-13%	/	0%[46.1 µM]
Cc1nn(-c2ccc(F)cc2)c(Cl)c1/C=C(/CC(=O)O)c1nc2ccccc2s1	-21%[46.1 µM]	/	/	/	/	14%	5%	5%[46.1 µM]
CCOc1ccc(N2C(=O)C(Cl)=C(N3CCOCC3)C2=O)cc1	-23%	0%	/	/	0%	-18%	25%	7%

(list continues)
SMILES	MARV entry inh	NS1 inh	Cruzain inh noDet	Cruzain inh Det	SARS PLP yeast	StopGo reporter	RE007 growth inh	LASV entry inh
Cn1c(C(=O)O)cc2cc(Oc3ccccc3)ccc21	/	-84%	/	/	-8%	1%	-24%	/
CCOC(=O)C(NC(=O)c1ccccc1)(N1CCOCC1)C(F)(F)F (stereo unspecified)	?	-6%	2%	4.4%	5%	-29%	-5%	-1%
O=C(NC(=S)Nc1nc(-c2cccc([N+](=O)[O-])c2)cs1)c1cc(Cl)ccc1Cl	?	5%	/	/	0%	?	-12%	?
O=C(CCN1C(=O)/C(=C\C=C\c2ccccc2)SC1=S)Nc1ccc(C(=O)O)cc1	/	17%	/	/	-7%	23%	-5%	/
COc1cccc(C(=O)C2CCCN(C(=O)c3ccccn3)C2)c1 (stereo unspecified)	/	-4%	/	/	12%	-8%	0%	/
COC(=O)c1cc2c(cc1N)OCCO2	-1%[46.1 µM]	0%	/	/	11%	25%	-11%	?
O=C(O)CC(C(=O)OC1CCCCC1)N1CCOCC1 (stereo unspecified)	4%	?	-23%	0.8%	0%	/	-6%	9%
CCOC(=O)COc1ccsc1C(=O)OC	-11%	15%	2%	0.2%	3%	-9%	-7%[3.69 µM]	26%
CC(=O)c1cccc(NC(=O)Cn2cnc(S(=O)(=O)N3CCCC3)c2)c1	/	3%	/	/	-4%	-10%	-2%	/
COc1ccc(Nc2nc3ccccc3nc2NS(=O)(=O)c2ccc(Cl)cc2)cc1OC	-4%[46.1 µM]	/	?	-3.4%	/	-10%	/	-1%[46.1 µM]
